High-throughput results as filed in PubChem.
HSV replic up – HSV replication enhancement | maximum fold increase | HSV replication augmentation in cells, fold increase | 220,000 tested, 0.005% active;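 active = peak rise of 1.5-fold or more in the series; tested in PC3 cells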;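 note: first round at 10 µM; read as green reporter fluorescence; hits show the peak of a series up to 25 µM; 1 = signal of infected wells without compound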
RGS16-Gao HTS – RGS16-Galphao interaction regulator (human); bead-based flow cytometry RGS16-Galphao binding, fluorescence; actives lie on both sides; 220,000 tested, 0.38% active; binding response (% of control), % at 10 µM; AID 1441;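 active = below 25% or above 175%, edge rows of some plates excepted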;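 note: Galphao activated by GDP with aluminum fluoride before binding; 100% = wells without compound and 0% = beads without RGS; some results beyond the cut were filed as inactive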
Target sequence (O15492 whole entry, looked up): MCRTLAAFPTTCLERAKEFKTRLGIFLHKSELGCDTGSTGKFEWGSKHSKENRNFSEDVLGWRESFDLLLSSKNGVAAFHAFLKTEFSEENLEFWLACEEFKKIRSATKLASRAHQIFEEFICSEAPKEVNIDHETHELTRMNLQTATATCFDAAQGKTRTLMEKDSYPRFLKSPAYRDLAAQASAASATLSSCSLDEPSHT
Target sequence (P09471 whole entry, looked up): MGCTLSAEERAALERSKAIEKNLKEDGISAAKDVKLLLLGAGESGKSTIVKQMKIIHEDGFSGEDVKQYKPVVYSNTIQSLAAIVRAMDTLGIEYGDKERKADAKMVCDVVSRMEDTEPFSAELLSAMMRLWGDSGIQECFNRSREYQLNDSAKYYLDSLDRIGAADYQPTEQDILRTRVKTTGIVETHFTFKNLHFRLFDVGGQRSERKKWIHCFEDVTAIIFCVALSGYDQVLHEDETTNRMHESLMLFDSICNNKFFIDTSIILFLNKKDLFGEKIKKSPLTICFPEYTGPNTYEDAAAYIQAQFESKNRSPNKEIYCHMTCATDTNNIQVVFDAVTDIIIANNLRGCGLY
GALR2 ag – activates the human galanin receptor 2; activation, %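 (tested at 5 µM)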; O43603; AID 803; GALR2-expressing cells, agonist activation read-out; 140,000 tested, 0.48% active;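 active = above mean plus 3 SD of all compounds, about 5% in these data, not always enough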;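 note: 0% = vehicle buffer wells and 100% = reference agonist at full effect; tested in CHO reporter cells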
Target sequence (O43603 whole entry, looked up): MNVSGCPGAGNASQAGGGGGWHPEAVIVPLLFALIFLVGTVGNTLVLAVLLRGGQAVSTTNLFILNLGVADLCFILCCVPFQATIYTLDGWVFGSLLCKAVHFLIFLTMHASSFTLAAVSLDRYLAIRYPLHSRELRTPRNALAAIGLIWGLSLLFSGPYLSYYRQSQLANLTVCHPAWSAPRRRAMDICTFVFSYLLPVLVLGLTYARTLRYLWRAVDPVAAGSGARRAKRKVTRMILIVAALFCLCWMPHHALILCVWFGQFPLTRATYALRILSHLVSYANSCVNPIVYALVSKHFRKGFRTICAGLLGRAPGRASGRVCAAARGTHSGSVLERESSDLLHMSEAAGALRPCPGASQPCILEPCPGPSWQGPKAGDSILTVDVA
INS promoter inh – TRM-6 insulin promoter activity inhibition. inhibition, % at 2 µM. 130,000 tested, 0.9% active. TRM-6 cells (human fetal islet line), insulin promoter-eGFP reporter, imaging; reporter expression induced with tamoxifen. AID 1273;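 active = inhibition above the mean plus 3 SD, with well images judged a real hit on visual review, cut at about 60% in these data, passing the limit was not always enough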
PKD1 inh – blocks activity of human protein kinase D1; PKD1 kinase fluorescence polarization assay; AID 797; Q15139; inhibition, %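 (about 10 µM by stock and volumes)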; 200,000 tested, 0.056% active;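 active = inhibition of 50% or more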;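 note: controls were vehicle for no effect and a reference inhibitor for full effect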
INS promoter inh cell count – also measured in INS promoter inh; calls as there; normalized cell count, %; measured here: cell count, toxicity; reference of the scale not given here;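 cells exposed to compound for 48 h; stained nuclei by imaging scaled within each plate; lower means fewer cells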
HSV replic up primary fold – also measured in HSV replic up; calls as there; fold increase; compound at 10 µM; measured here: primary screen fold increase 10 uM; tested in PC3 cells;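 GFP signal in the first replicate; 1 = infected wells without compound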
An asterisk follows results filed as active; i = inactive; / = not tested or not shown. No enrichment for hits; about 1.3% have a hit in one of these screens.

Values in the order – HSV replic up	GALR2 ag	HSV replic up primary fold	INS promoter inh	PKD1 inh	INS promoter inh cell count	RGS16-Gao HTS
1: CC(C)CN1C=C2C(=O)C(C)(OC(=O)CCc3ccccc3)C(=O)C=C2C=C1c1ccc(C#N)cc1 (configuration not stated)
→ i	/	0.87	/	/	/	99
2: CSc1ccc(Cl)c(C(=O)NCCOc2ccccc2)c1
→ i	-2.3	1.1	/	-2	/	104
3: CCOc1ccc(N2CC(=O)N(c3ccc(OCC)cc3)CC2=O)cc1
→ i	-1.3	0.8	/	-16	/	102
4: CCN(CC)C(=O)C(=O)c1cn(CC(=O)N2CCc3ccccc3C2)c2ccccc12
→ i	/	0.88	-145	-3	154	108
5: CCN(CC)S(=O)(=O)c1cc(C(=O)O)ccc1Cl
→ i	-2.5	1.1	44	-7	126	100
6: Cc1cccc(C2c3[nH]c4ccccc4c3CCN2C(=O)c2cc(-c3cccn3C)n[nH]2)n1 (configuration not stated)
→ i	/	0.96	14	-2	115	106
7: CCCOc1ccc(N2C(=O)CC(N(CCc3ccc(OC)cc3)C(=O)/C=C/C(=O)O)C2=O)cc1 (configuration not stated)
→ i	/	0.82	/	-2	/	108
8: Oc1ccc(-n2cnnn2)cc1
→ i	-1.1	0.86	7	1	113	100
9: CCc1nnc(NC(=O)CSc2nc3c(cc2C#N)CCC3)s1
→ i	-1.1	0.96	-29	2	69	99
10: CCOc1ccc(CSCCNC(=S)Nc2ccc(OC)cc2)cc1
→ i	/	0.99	/	/	/	95
11: O=[N+]([O-])c1ccc(N2CCN(S(=O)(=O)c3ccccc3)CC2)cc1NCc1ccco1
→ i	0.2	0.88	/	0	/	105
12: Cc1ccc(OCCc2csc(N)n2)cc1
→ /	/	/	-38	-9	103	97
13: O=C(COC(=O)c1cccs1)NCCC1=CCCCC1
→ i	-0.8	0.98	/	-3	/	92
14: Cc1ccc(Cn2nnnc2CN2CCC(O)(c3ccc(F)cc3)CC2)cc1
→ i	-1.9	0.88	0	17	88	98
15: COc1cc(/C=N/NC(=O)c2ccncc2)ccc1OC(=O)c1ccccc1Cl
→ i	/	0.99	/	-7	/	108
16: Cc1cc(-n2cccn2)ccc1CN1CCN(C2CCCC2)C(CCO)C1 (configuration not stated)
→ i	/	1.1	/	3	/	104
17: Fc1ccc(CN2C3=NCCCN3c3ccccc32)cc1
→ i	-0.2	0.93	13	-5	119	102
18: FC(F)(F)c1ccc(Oc2ccc3c(C(F)(F)F)cc(C(F)(F)F)nc3n2)cc1
→ i	-2.2	0.97	-18	-4	152	99
19: COc1ccc(C(C)=O)cc1COc1ccc(-n2cnnn2)cc1
→ i	-1.4	0.92	-8	-3	162	98
20: O=C(NCCCn1ccnc1)/C(=C\c1cccnc1)NC(=O)c1cccc(Br)c1
→ i	-0.5	0.97	0	-5	46	95
21: NC1=NC(=O)/C(=C\c2ccco2)S1
→ i	/	0.95	/	/	/	99
22: CN1CCN(c2nc3c(c(=O)n(C)c(=O)n3C)n2CC(=O)C23CC4CC(CC(C4)C2)C3)CC1
→ i	-0.8	0.86	-74	-6	132	156
23: Nn1c(COc2ccccc2)nnc1SCc1cc(=O)[nH]c2ccccc12
→ i	-0.8	0.95	-3	-8	155	103
24: Cc1ccccc1NC(=O)CSC1=C(C#N)C(c2ccsc2)CC(=O)N1 (configuration not stated)
→ i	-3.0	0.87	-321	3	26	105
25: O=C(c1ccccc1)N1CCc2ccccc21
→ i	-1.6	1	0	4	117	102
26: COc1cccc(/C=C(/C(=O)OCC(N)=O)c2ccccc2)c1
→ i	/	1.1	/	-3	/	101
27: CCOC(=O)c1csc(NC(=O)CSc2nnnn2CC)n1
→ i	-2.0	1	42	-6	102	105
28: NS(=O)(=O)c1ccc(N=Nc2c(O)ccc3ccccc23)cc1
→ i	/	0.66	/	2	/	101
29: O=[N+]([O-])c1cccc(/C=N/N2CCN(c3ccccn3)CC2)c1
→ i	0.1	1	/	9	/	100
30: COc1cccc(/C=N/NC(=O)c2ccc(=O)n(C)c2)c1OC
→ i	0.1	0.95	/	0	/	101
31: Cc1nc2sc3c(c2c(=O)n1N)CCC3
→ i	/	0.8	0	-3	141	102
32: CCC1(C(=O)OC)NC(c2ccco2)C2C(=O)N(c3ccccc3)C(=O)C21 (configuration not stated)
→ i	-2.6	0.93	-17	10	111	87
33: COc1cc(-c2csc(C)n2)ccc1O
→ i	-0.1	1	0	1	102	96
34: CCNC(=S)Nc1cccc(F)c1C
→ i	/	0.93	/	-8	/	96
35: CC1=[N+]([O-])C(C)(C)C(C)N(O)C1=O (configuration not stated)
→ i	0.1	1	34	-10	86	103
36: O=C(/C=C/c1ccccc1Cl)NCCN1CCOCC1
→ i	-1.3	0.85	/	0	/	106
37: COc1ccc(C)cc1NC(=O)C1CCCN(S(=O)(=O)c2cccc3nonc23)C1 (configuration not stated)
→ i	-0.3	0.95	0	-8	94	21
38: CCn1cc([C@@H]2C[C@H]3CN(Cc4cccc(Cl)c4)C(=O)[C@]34CCCN24)c(C)n1
→ i	/	1	0	-3	128	112
39: CCCC(c1nnnn1Cc1cccs1)N1CCN(c2nc3ccccc3s2)CC1 (configuration not stated)
→ i	0.2	1	/	5	/	102
40: O=C(N/N=C/c1ccc(O)c(O)c1)c1cccc(S(=O)(=O)N2CCCCC2)c1
→ i	/	0.98	/	-4	/	95
41: CCn1c(CSc2nc3ccccc3s2)nnc1SCC(=O)c1ccc(Cl)cc1
→ i	-2.3	0.99	/	-3	/	97
42: O=C(CSc1ncnc2c1oc1ccccc12)NCC1CCCO1 (configuration not stated)
→ i	-0.6	0.76	-56	-8	109	/
43: CC1CN(c2oc(-c3ccco3)nc2C#N)CC(C)O1 (configuration not stated)
→ i	-2.3	1.1	40	-18	112	101
44: CCOc1ccccc1Nc1nnc(SCc2ccc(C(=O)OC)o2)s1
→ i	-2.2	0.69	/	-10	/	95
45: O=C(CCCCn1c(=O)[nH]c2ccsc2c1=O)NCc1ccc2c(c1)OCO2
→ i	-2.9	0.79	/	-10	/	103
46: Cc1ccc2nc(N3C(=O)C(O)=C(C(=O)c4cc5ccccc5o4)C3c3cccs3)sc2c1 (configuration not stated)
→ /	-2.4	/	35	-4	66	100
47: CCOC(=O)C1C(=O)CC(C)(O)C(C(=O)OCC)C1c1cccc(OC(F)(F)C(F)F)c1 (configuration not stated)
→ i	-1.1	0.75	-31	11	99	114
48: CCOc1ccc(C(=O)NC2CC3CCCC(C2)N3CC(C)C)cc1 (configuration not stated)
→ i	/	0.97	-92	-1	49	89
49: O=C(O)c1cc(NS(=O)(=O)c2ccc(N3CCOCC3)c([N+](=O)[O-])c2)cc(C(=O)O)c1
→ i	1.2	1.2	31	1	70	32
50: c1ccc(-n2c(-c3ccco3)nnc2-c2ccco2)cc1
→ i	-1.7	0.85	-62	-4	106	88
51: CCOC(=O)N1CCN(C(=O)c2oc3ccc(S(=O)(=O)N4CCOCC4)cc3c2C)CC1
→ i	-0.9	0.94	0	7	92	111
52: CCOC(=O)c1ccc(S(=O)(=O)NNC(=O)COc2ccccc2C)cc1
→ i	-0.6	0.96	-109	-2	5	97
53: Cc1cc(NC(=O)CSc2nnc(-c3cccnc3)n2C)no1
→ i	-1.5	0.96	46	-11	106	96
54: CCC(C)(C)n1nnnc1C(c1ccc(O)cc1)N1CCc2ccccc2C1 (configuration not stated)
→ i	/	1	/	1	/	99
55: CCCCCCCc1nc2nc(C)c(Br)c(=O)n2[nH]1
→ i	/	1	/	/	/	94
56: O=C(CCC(=O)c1cccs1)Nc1ccc(N2CCCCC2)cc1
→ i	/	0.81	-8	-8	127	89
57: O=C(CSCC(=O)N1CCCc2ccccc21)Nc1nc(-c2ccccc2)cs1
→ i	-1.8	0.94	14	-1	102	/
58: Cc1nc2ncccn2c1-c1csc(Nc2ccccc2)n1
→ i	-2.0	0.88	-71	8	94	100
59: O=C(N/N=C/c1ccc([N+](=O)[O-])cc1)C(=O)N1CCCC1
→ i	/	0.92	-12	-9	155	103
60: Cc1nc(-c2nnc(SCC(=O)Nc3ccc(Cl)cc3)n2C)cs1
→ i	/	0.95	/	/	/	101

3 entries already listed, arranged by number of heavy atoms, ascending.
Values in the order – HSV replic up	GALR2 ag	HSV replic up primary fold	INS promoter inh	PKD1 inh	INS promoter inh cell count	RGS16-Gao HTS
60: Cc1nc(-c2nnc(SCC(=O)Nc3ccc(Cl)cc3)n2C)cs1
→ i	/	0.95	/	/	/	101
48: CCOc1ccc(C(=O)NC2CC3CCCC(C2)N3CC(C)C)cc1 (configuration not stated)
→ i	/	0.97	-92	-1	49	89
51: CCOC(=O)N1CCN(C(=O)c2oc3ccc(S(=O)(=O)N4CCOCC4)cc3c2C)CC1
→ i	-0.9	0.94	0	7	92	111

(list continues)
Values in the order – HSV replic up	GALR2 ag	HSV replic up primary fold	INS promoter inh	PKD1 inh	INS promoter inh cell count	RGS16-Gao HTS
61: CCN(CC)c1ccc(/C=N/N2CCN(Cc3ccc(Cl)cc3)CC2)c(O)c1
→ i	/	1.2	/	/	/	98
62: O=C(/C=C/c1ccco1)Nc1cccc(NC(=O)/C=C/c2ccco2)n1
→ i	-1.1	1.1	15	-9	79	94
63: CCOc1ccc(-n2c(SCC(=O)NCc3ccco3)nnc2-c2c[nH]c3ccccc23)cc1
→ i	-0.8	0.85	/	-3	/	112
64: CCc1ccc(OCC(=O)NNC(=O)CSc2ncnc3sc(C)c(C)c23)cc1
→ i	-0.9	0.83	/	-3	/	92
65: CCN(CC)C(=O)c1cnn(-c2ccccc2)c1NC(=O)c1ccco1
→ i	-2.4	0.96	-3	-3	132	103
66: CSc1nnnn1-c1c(C)cc(C)cc1C
→ i	/	1	/	/	/	99
67: CC(C)(C)c1ccc(C(=O)c2c[nH]c(C(=O)NCC3CCCO3)c2)cc1 (configuration not stated)
→ i	-0.6	0.85	-26	-8	76	97
68: Cn1nc(C(=O)OCC(=O)N2CCc3ccccc32)c2ccccc2c1=O
→ i	-1.9	0.97	/	-7	/	103
69: COc1ccc(/C=C2\N=C(SC)SC2=O)cc1OC
→ i	-0.9	0.93	-69	-8	229	102
70: CCOC(=O)N1CCN(C(=S)NC(=O)c2cc(Br)ccc2Cl)CC1
→ i	/	0.87	0	-7	130	103
71: N#Cc1c(/N=C/c2cccs2)sc2c1CCCCC2
→ i	-1.4	0.95	-11	2	113	109
72: NC(=NC(=O)c1ccccc1)N1CCN(C(c2ccccc2)c2ccccc2)CC1
→ i	/	0.96	/	/	/	100
73: Cn1c(SCc2nc(-c3cccs3)no2)nnc1C1CCCCC1
→ i	-0.7	1	-31	12	104	105
74: O=C(CN1CCN(Cc2ccc(Cl)cc2)CC1)N/N=C/c1ccncc1
→ i	-0.7	0.98	38	-13	51	114
75: Cc1nc2nc(SCC(=O)NCc3ccco3)nn2c(C)c1Cc1c(F)cccc1Cl
→ i	-1.2	0.86	/	4	/	102
76: O=C(c1cccc(C(F)(F)F)c1)c1c[nH]c(C(=O)NCCCN2CCOCC2)c1
→ i	/	0.98	/	-3	/	103
77: COc1cccc(NC(=O)c2cc([N+](=O)[O-])ccc2NC(=O)CNCC2CCCO2)c1 (configuration not stated)
→ i	/	0.95	-62	-2	51	94
78: Cc1c(C#N)c(N)c(C(=O)c2ccccc2)n1Cc1ccccc1
→ i	-1.6	1	18	-7	141	74
79: Cc1ccc(NC(=O)C2CCN(S(=O)(=O)c3c(C)noc3/C=C/c3ccco3)CC2)nc1
→ i	-0.2	1	4	-7	133	105
80: O=C(CSc1nc(N2CCCCC2)nc(N2CCCCC2)n1)NC1CCCCC1
→ /	-0.5	/	-12	0	84	/
81: CN1CCN(CC(=O)Nc2ccc([N+](=O)[O-])cc2Br)CC1
→ i	/	0.93	/	0	/	102

An excerpt from above, reduced to HSV replic up:
cpd	Compound	HSV replic up
7	CCCOc1ccc(N2C(=O)CC(N(CCc3ccc(OC)cc3)C(=O)/C=C/C(=O)O)C2=O)cc1 (configuration not stated)	i
6	Cc1cccc(C2c3[nH]c4ccccc4c3CCN2C(=O)c2cc(-c3cccn3C)n[nH]2)n1 (configuration not stated)	i
41	CCn1c(CSc2nc3ccccc3s2)nnc1SCC(=O)c1ccc(Cl)cc1	i
